Polio RdRp inh = poliovirus RNA polymerase inhibition; P03300; poliovirus polymerase elongation, fluorescence polarization; stronger effect = lower value; % elongation, % (compound at 16.7 µg/mL); 0.66% of 150,000 active; in the data active = % elongation below about 90%; note: some results filed as inactive read as strong as hits
Target sequence (P03300 1749-2209 limits assumed): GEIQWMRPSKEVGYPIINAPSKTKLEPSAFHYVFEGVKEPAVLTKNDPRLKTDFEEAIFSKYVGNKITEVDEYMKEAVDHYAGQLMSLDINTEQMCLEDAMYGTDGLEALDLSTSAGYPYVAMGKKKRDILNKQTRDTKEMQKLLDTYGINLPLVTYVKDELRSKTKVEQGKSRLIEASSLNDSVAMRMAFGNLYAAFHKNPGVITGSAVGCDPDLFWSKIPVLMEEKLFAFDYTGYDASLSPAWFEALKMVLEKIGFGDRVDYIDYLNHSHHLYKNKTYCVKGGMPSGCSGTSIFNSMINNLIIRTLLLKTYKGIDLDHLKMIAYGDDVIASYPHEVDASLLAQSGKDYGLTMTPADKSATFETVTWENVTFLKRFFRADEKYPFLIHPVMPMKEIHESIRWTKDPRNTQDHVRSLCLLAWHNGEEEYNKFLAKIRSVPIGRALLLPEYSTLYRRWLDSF
MbtI inh = blocks the Mycobacterium tuberculosis siderophore enzyme MbtI | P9WFX0 | purified MbtI enzyme, fluorescence intensity read-out | inhibition, %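 (about 17 µg/mL by stock and volumes)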 | 0.89% of 100,000 active | AID 493033;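 active = above 50% in both replicates, above 80% if mildly self-fluorescent; inactive = the rest, strongly fluorescent compounds included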;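 note: 0% = mean of negative and 100% = mean of positive controls; one replicate is shown; some compounds called inactive have numbers as strong as hits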
Target sequence (P9WFX0 whole entry, looked up): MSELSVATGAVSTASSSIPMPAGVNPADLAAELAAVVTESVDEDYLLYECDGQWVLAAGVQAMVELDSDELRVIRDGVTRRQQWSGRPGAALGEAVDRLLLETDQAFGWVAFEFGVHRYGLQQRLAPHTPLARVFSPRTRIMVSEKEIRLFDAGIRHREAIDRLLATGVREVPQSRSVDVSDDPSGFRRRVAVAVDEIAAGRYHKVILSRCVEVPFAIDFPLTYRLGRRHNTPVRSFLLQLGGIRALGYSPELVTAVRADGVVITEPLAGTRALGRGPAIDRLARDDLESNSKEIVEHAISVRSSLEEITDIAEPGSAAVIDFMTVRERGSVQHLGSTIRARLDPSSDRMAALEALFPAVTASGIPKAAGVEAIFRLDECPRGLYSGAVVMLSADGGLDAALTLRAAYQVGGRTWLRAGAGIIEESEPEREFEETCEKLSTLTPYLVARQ
MenB inh = Mtb MenB enzyme inhibition. 0.43% of 100,000 active. inhibition, %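 (about 12 µg/mL by stock and volumes)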. AID 540299. P9WNP5. MenB enzyme assay, absorbance read-out; some hits fall short of the stated cut;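 active = mean of two replicates above 30%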;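 note: 0% = no compound and 100% = wells with inactive enzyme; the first replicate is given; strong numbers were not always called active; inactives centre near -10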
Polio RdRp inh intensity = recorded beside Polio RdRp inh, whose call it bears; % elongation; measured here: total intensity read-out; formula for this scale not given here;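 total fluorescence in place of polarization; lower means less elongation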
Starred values were filed as active, the others as inactive; . = no result given; & = joins results of further samples.

cpd	Compound	Polio RdRp inh	Polio RdRp inh intensity	MbtI inh	MenB inh
1	CCCCC/C=C\C/C=C\CCCCCCCC(=O)NCCO	103.0&99.0	102.0&93.0	-20.8	-9.4
2	CCC(NC(=O)Oc1ccc2ccccc2c1)(C(F)(F)F)C(F)(F)F	102.0	104.0	.	7.7
3	NC(=O)c1ccc(NC(=O)COC(=O)C2(c3ccccc3F)CCCC2)cc1	103.0	98.0	1.4	.
4	CCC(=O)c1c(O)cc(O)cc1O	100.0	99.0	-13.8	-8.2
5	COc1ccc(-c2ccc(CCC(=O)O)[nH]2)cc1	100.0	116.0	88.5	5.0
6	CCCc1nc(-c2ccccn2)nc(OC(=O)N(C)C)c1Cc1c(F)cccc1Cl	101.0	102.0	-6.2	-24.3
7	O=S(=O)(c1cccc(-c2nn(CN3CCc4ccccc4C3)c(=S)o2)c1)N1CCCCC1	102.0	102.0	0.8	-29.9
8	CSc1ncc(C(=O)N2CCOCC2)n1-c1ccccc1	103.0	108.0	-1.9	-6.3
9	Cc1ccc(NC(=O)COC(=O)Cc2c(C)noc2C)cc1C	105.0	107.0	10.6	-20.2
10	Cc1ccc2scc(N3CCOCC3)c(=O)c2c1	101.0	102.0	-11.2	-166.8
11	CCOc1ccc(Br)cc1S(=O)(=O)NC1=NCCCCC1	100.0	109.0	-14.0	-10.8
12	CC1CCC(NC(=O)CCCn2sc3ccccc3c2=O)CC1 (stereo not drawn)	100.0	101.0	66.2	-0.4
13	O=C(CSc1ccccc1)Nc1c(C(=O)C2CC2)oc2ccccc12	103.0	110.0	.	3.4
14	CC1CCN(C(=O)COc2ccc(-c3ccccc3)cc2)CC1	.	.	4.7	-14.3
15	CCOC(=O)c1c(NC(=O)COC(=O)C2CC(=O)N(Cc3ccco3)C2)sc(C(=O)NC)c1C (stereo not drawn)	99.0	107.0	27.2	-16.9
16	Cc1ccc(S(=O)(=O)N2CCN(C(=O)c3ccc(Br)o3)CC2)cc1	101.0	106.0	-4.4	-36.3
17	Oc1ccc(C23CC4CC(CC(C4)C2)C3)cc1O	102.0	106.0	6.2	.
18	Cc1c(C2=NNC(O)(C(F)(F)F)C2)sc2ccccc12 (stereo not drawn)	99.0	110.0	-70.5	7.0
19	CCN(C(=O)c1ccc(OC(C)C)cc1)C1CCS(=O)(=O)C1 (stereo not drawn)	.	.	-35.3	-22.4
20	Cc1oc2ncn3nc(CCn4c(C)nc5ccccc54)nc3c2c1C	101.0	111.0	-5.7	-12.2
21	O=C(CN1C(=O)CCSc2ccccc21)Nc1ccccc1	101.0	101.0	-4.5	-16.4
22	CC1CCCC(NC(=O)NC(=O)CN2C(=O)C3CC=CCC3C2=O)C1C (stereo not drawn)	102.0	102.0	-5.0	-23.0
23	O=C(C1CC(c2ccc(F)cc2)=NO1)N1CCCc2ccccc21 (stereo not drawn)	103.0	102.0	-2.2	-0.8
24	c1ccc(-c2cc3ccsc3s2)cc1	103.0	105.0	5.4	-20.0
25	C=CCNCCOc1ccc(Cl)cc1C(C)(C)C	101.0	104.0	-14.7	-20.1
26	CC(=O)OCC1=C(C(=O)O)N2C(=O)[C@@H](NC(=O)Cc3cccs3)[C@H]2SC1	103.0&102.0	99.0&100.0	-6.4&-20.1	-9.0&4.0
27	N#Cc1c(NC(=O)COC(=O)c2cccs2)sc2c1CCC2	101.0	101.0	-2.4	13.8
28	NC(=O)C1CC(=O)N(c2ccc(OCC(=O)N3CCCC3)cc2)C1 (stereo not drawn)	101.0	101.0	-3.2	6.3
29	Cc1[nH][nH]c(=O)c1C(c1cccc(Cl)c1)C(C#N)C#N (stereo not drawn)	100.0	100.0	52.9	-33.2
30	COc1ccc(/C(O)=C/c2nc3ccc(C(=O)N4CCN(c5cccc(C)c5C)CC4)cc3[nH]c2=O)cc1	105.0	120.0	-3.4	-19.3

Nos. 15 through 28, quoted:
cpd	Compound	Polio RdRp inh	Polio RdRp inh intensity	MbtI inh	MenB inh
15	CCOC(=O)c1c(NC(=O)COC(=O)C2CC(=O)N(Cc3ccco3)C2)sc(C(=O)NC)c1C (stereo not drawn)	99.0	107.0	27.2	-16.9
16	Cc1ccc(S(=O)(=O)N2CCN(C(=O)c3ccc(Br)o3)CC2)cc1	101.0	106.0	-4.4	-36.3
17	Oc1ccc(C23CC4CC(CC(C4)C2)C3)cc1O	102.0	106.0	6.2	.
18	Cc1c(C2=NNC(O)(C(F)(F)F)C2)sc2ccccc12 (stereo not drawn)	99.0	110.0	-70.5	7.0
19	CCN(C(=O)c1ccc(OC(C)C)cc1)C1CCS(=O)(=O)C1 (stereo not drawn)	.	.	-35.3	-22.4
20	Cc1oc2ncn3nc(CCn4c(C)nc5ccccc54)nc3c2c1C	101.0	111.0	-5.7	-12.2
21	O=C(CN1C(=O)CCSc2ccccc21)Nc1ccccc1	101.0	101.0	-4.5	-16.4
22	CC1CCCC(NC(=O)NC(=O)CN2C(=O)C3CC=CCC3C2=O)C1C (stereo not drawn)	102.0	102.0	-5.0	-23.0
23	O=C(C1CC(c2ccc(F)cc2)=NO1)N1CCCc2ccccc21 (stereo not drawn)	103.0	102.0	-2.2	-0.8
24	c1ccc(-c2cc3ccsc3s2)cc1	103.0	105.0	5.4	-20.0
25	C=CCNCCOc1ccc(Cl)cc1C(C)(C)C	101.0	104.0	-14.7	-20.1
26	CC(=O)OCC1=C(C(=O)O)N2C(=O)[C@@H](NC(=O)Cc3cccs3)[C@H]2SC1	103.0&102.0	99.0&100.0	-6.4&-20.1	-9.0&4.0
27	N#Cc1c(NC(=O)COC(=O)c2cccs2)sc2c1CCC2	101.0	101.0	-2.4	13.8
28	NC(=O)C1CC(=O)N(c2ccc(OCC(=O)N3CCCC3)cc2)C1 (stereo not drawn)	101.0	101.0	-3.2	6.3

Other compounds
cpd	Compound	Polio RdRp inh	Polio RdRp inh intensity	MbtI inh	MenB inh
31	COc1ccc2c(c1)c(C(=O)OCCN(C)C)c(C)n2C	99.0	99.0	8.7	2.2
32	CN1C(=O)C(=Cc2ccccc2OCc2ccccc2)C(=O)N(C)C1=S	100.0	94.0	77.1	-25.2
33	Cc1nn(Cc2ccccc2Cl)c(C)c1C(=O)N(CC1CCCO1)C1CCS(=O)(=O)C1 (stereo not drawn)	110.0	113.0	-4.5	-5.6
34	Cc1cccc2nc3c(nc12)-c1ccccc1C3=Nc1ccccc1	102.0	95.0	.	-7.4
35	N#CC1=C(Nc2ccc(Br)cc2)CCC1	98.0	101.0	-2.6	-16.9
36	N#Cc1ccc(C=Nc2ccc(C(N)=O)cc2)cc1	103.0	102.0	-7.0	-19.7
37	CCc1cccc(NC(=O)C2CCN(c3nnc(-n4cccc4)s3)CC2)c1	101.0	98.0	8.4	11.0
38	CC(=O)O[C@]1(C(C)=O)CCC2C3C=C(Cl)C4=CC(=O)CC[C@]4(C)C3CC[C@@]21C (stereo partly drawn)	101.0	103.0	-14.8	0.7
39	O=C(OCC(=O)N1c2ccccc2Sc2ccccc21)C1CC(=O)N(Cc2ccco2)C1 (stereo not drawn)	105.0	97.0	-10.0	-39.9
40	Cc1oc(-c2ccc(Cl)cc2)nc1CN1CCC(C(=O)NC(C)CCc2ccccc2)CC1 (stereo not drawn)	101.0	103.0	-0.7	-17.5
41	Cc1cccn2c(=O)c(/C=C3\SC(=S)N(C(C)C)C3=O)c(N3CC(C)OC(C)C3)nc12 (stereo not drawn)	119.0	139.0	-5.2	-4.7
42	CCc1ccc(NC(=O)CCC2=NS(=O)(=O)c3ccccc3N2)cc1	103.0	104.0	-12.6	-12.7
43	O=c1c(=N\O)/c(=N/O)c(=O)c2ccccc12	60.0*	60.0*	25.0	-12.4
44	CC(C)C1Nc2ccccc2S(=O)(=O)N1 (stereo not drawn)	101.0	103.0	13.1	-4.5
45	Cc1cccnc1NCC(O)COc1ccccc1 (stereo not drawn)	99.0	102.0	89.4	28.7
46	CSc1ccccc1NC(=O)CN(C)Cc1cc(=O)n2ccsc2n1	104.0	106.0	-14.9	10.6
47	CSc1ccccc1NS(=O)(=O)c1ccccc1C(F)(F)F	107.0	108.0	-8.4	2.2
48	O=C(COc1ccc(-c2ccccc2)cc1)NC1CCOC1=O (stereo not drawn)	108.0	96.0	6.6	5.5
49	CN(C)S(=O)(=O)N(CC(N)=O)c1ccccc1	100.0	104.0	-4.9	-7.5
50	CC(C(=O)Nc1ccc(S(=O)(=O)Nc2ncccn2)cc1)N1C(=O)c2ccccc2C1=O (stereo not drawn)	103.0	101.0	-3.2	-7.7
51	Cc1ccccc1N1C(=O)c2ccc(C(=O)OCc3nnc(-c4cccs4)o3)cc2C1=O	108.0	105.0	-3.6	-10.4
52	CCn1c(=O)c2ccccc2n(CC(=O)NCCc2ccc(OC)c(OC)c2)c1=O	106.0	106.0	-4.2	-117.5
53	COc1ccc(NC2SC(=O)N(Cc3ccccc3)C2=O)cc1 (stereo not drawn)	101.0	101.0	1.7	-8.5
54	CC(=O)N1N=C(N)SC1(C)c1ccccc1 (stereo not drawn)	103.0	102.0	-0.3	8.2
55	O=C(NC1CCCCCC1)C1CCN(C(=O)Cc2ccccc2)CC1	103.0	100.0	.	-3.6
56	Cc1ccc(S(=O)(=O)Nc2ccc3nc(C)sc3c2)cc1	102.0	101.0	-7.4	-32.9
57	COc1ccc(NC(=O)Cn2cc(C(=O)c3cccs3)c3ccccc32)cc1	106.0&101.0	110.0&101.0	-5.6	12.7
58	CC(=O)Nc1ccc(OCC(=O)N(CC(C)C)C2CCS(=O)(=O)C2)cc1 (stereo not drawn)	101.0	95.0	-3.1	10.3
59	O=C1N[C@H](Cc2ccccc2)C(=O)N2CCC[C@@H]12	104.0	102.0	-6.0	-5.4
60	CCCCn1nnnc1COC(=O)c1sc2cc(Cl)ccc2c1Cl	101.0	109.0	33.2	-6.3
61	CCC1(C)Cc2c(C#N)c(N)n(N)c(=S)c2CO1 (stereo not drawn)	99.0	102.0	11.1	-12.4
62	O=c1sn(-c2ccc(F)c(Cl)c2)c(=O)n1C1Cc2ccccc2C1	95.0	84.0	83.2*	9.1
63	Cc1ccsc1C(=O)OCC(=O)N1C(C)CCCC1C (stereo not drawn)	104.0	112.0	-6.4	11.1
64	CC(C)NC(=O)CCC1CCCCC1	105.0	109.0	-14.9	-9.7
65	CCC(=O)Nc1cccc(-c2cnc3ccccc3n2)c1	101.0	104.0	-6.2	-4.7
66	CC1(C)CC(C)(O)P(=O)(c2ccccc2)O1 (stereo not drawn)	104.0	106.0	-16.8	9.8
67	CCOC(=O)CSc1nnc(Cc2ccc(Cl)cc2)c(=O)[nH]1	98.0	102.0	8.8	11.2
68	C=CCn1c(SCC(=O)O)nnc1-c1ccco1	104.0	101.0	4.3	-38.3
69	CCOC(=O)C1=C(C)N(C2CCCC2)C(=O)NC1c1ccc(Cl)cc1 (stereo not drawn)	100.0	97.0	-0.2	-30.7
70	CC1Cc2ccccc2N1C(=O)c1cnsn1 (stereo not drawn)	104.0	104.0	-5.0	-5.2
71	CCN1C(=O)/C(=C/C=C2\Oc3ccccc3N2CC)SC1=S	107.0	106.0	-10.8	-30.0
72	CC(=O)Nc1cccc(NC(=O)Cn2c(-c3cccnc3)ccc(C#N)c2=O)c1	102.0	115.0	5.1	-11.5
73	COc1ccc(N2C(S)=C(C#N)C(=O)NC2c2ccccc2)cc1 (stereo not drawn)	99.0	102.0	3.4	7.1
74	OC1(c2ccccc2F)CCN(CCN2CCCCC2)CC1	99.0	103.0	7.2	2.4
75	Cc1cc(Br)ccc1NC(C)C(=O)N1CC(C)OC(C)C1 (stereo not drawn)	103.0	104.0	4.0	11.4
76	Brc1ccc(COc2ccc(-n3cnnn3)cc2)cc1	102.0	105.0	4.4	-2.5
77	CCCCCn1c(=O)[nH]c2cc(C(=O)N3CCN(C4CCCCC4)CC3)ccc2c1=O	100.0	102.0	-6.9	-19.1
78	O=C(O)c1ccccc1C(=O)N1CCCC1	101.0	97.0	.	6.7
79	Fc1cccc(CN2CCN(Cc3ccccc3)CC2)c1	101.0	100.0	4.0	-9.2
80	CCCCn1nnnc1COC(=O)c1ccccc1O	98.0	106.0	-219.6	-15.2
81	O=c1oc(-c2cccs2)nc2ccc(Br)cc12	101.0	104.0	62.8	7.6
82	NC(=O)C1CC(O)CN1c1ncnc2cc(-c3ccc(F)cc3)sc12 (stereo not drawn)	100.0	102.0	-22.0	11.3
83	O=C(CSc1nc2ncccc2o1)NCc1ccco1	103.0	104.0	2.0	6.7
84	CC1C/C(=C/c2ccccn2)C(=O)/C(=C/c2ccccn2)C1 (stereo not drawn)	98.0	101.0	33.8	3.4
85	CC(C)C1CC(CCN2C(=O)CCC2=O)(c2ccccc2)CCO1 (stereo not drawn)	100.0	104.0	-6.2	2.2
86	O=c1[nH]c(C2=C(O)Cn3c2nc(=O)c2ccccc23)nc2ccccc12	100.0	110.0	.	-8.2
87	CCN(Cc1ccc2c(c1)OCCO2)C(=S)NCc1ccco1	97.0	101.0	88.7*	-30.9
88	O=C1OCCC1Sc1nnc(-c2cccc(S(=O)(=O)N3CCOCC3)c2)n1-c1cccc(Cl)c1 (stereo not drawn)	103.0	109.0	-4.2	-12.4

Compound activity as filed in PubChem.
